Screening data as filed in PubChem.
Rango dissoc inh: qHTS Assay for Inhibitors of RanGTP induced Rango (Ran-regulated importin-beta cargo) - Importin beta complex dissociation; Snurportin-1 (Homo sapiens) + GTP-binding nuclear protein Ran (Homo sapiens) + Importin …; Biochemical FRET Rango-importin beta, RanGTP-induced dissociation; Potency, µM (top dose mostly 46.1 µM), inactives show top-dose activity change, negative = inhibition; 340,000 compounds, 0.071% hits; active means falling FRET ratio curve, often poorly fitted, with flat reads before Ran was added; inconclusive means other falling curves, or compound fluorescence or quenching; inactive means flat or rising ratio curve;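 further: potency means the concentration at half of the fitted maximal effect; % of control where 0% means no effect; nearly all actives have a fitted effect of over 45% in size; -100% = wells without RanGTP and RCC1; the record marks most hits as doubtful in a second field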
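Compounds preincubate 5 min with complex of recombinant Rango and importin beta in PBS with 1 mM DTT. Ran (0.6 uM) loaded with 2 mM GTP plus 0.2 uM RCC1 starts dissociation; FRET is recorded 45 min later.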
miR-21 FLuc: qHTS Assay for Modulators of miRNAs and/orActivators of miR-21 | HeLa miR-21 FLuc reporter, luciferase, 48 h | Potency, µM (doses to about 38.3 µM), without a hit: at the highest dose reporter change, positive = more light | 340,000 tested, under 10 active | AID 2288, 2010; active = well fitted rising curve with a large enough effect; inconclusive = small, poorly fitted or top-dose-only effect; inactive = no such curve, though single readings can be large or run the other way;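 further: % of control where 0% means no effect; miR-21 action dims this reporter so a rising signal means less miR-21 action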
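HeLa cells endogenously expressing miR-21, stably carrying CMV-driven firefly luciferase with a downstream miR-21 binding site, 2000 cells/well. Titrations up to approximately 40 uM, 48 hours; luciferase luminescence read.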
Rango complex inh: qHTS Assay for Inhibitors of Rango (Ran-regulated importin-beta cargo) - Importin beta complex formation. 340,000 compounds, 0.031% hits. Rango CFP/YFP FRET sensor + importin beta, 45 min. AID 540263, 2011. Importin subunit beta-1 (Homo sapiens), Q14974. Potency, µM (titrated, usually from 92.2 µM), for the others: top-dose inhibition of complex formation; active = rising FRET ratio curve, often small or poorly fitted; inconclusive = mostly compound fluorescence or quenching in the first reads; inactive = flat curves in all reads;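 further: potency means the concentration at half of the fitted maximal effect; 0% = DMSO wells and 100% = buffer wells lacking importin beta; nearly all actives have a fitted effect of over 15% in size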
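FRET biosensor (snurportin 1 IBB flanked by EYFP and cerulean), 50 nM, with compound 5 min, then 0.125 microM importin beta in PBS, 1 mM DTT, 0.02% Tween-20, 0.1% BSA. CFP/YFP ratio read after 45 min at room temperature; pre-read flags interference.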
GLA inh pH 4.5: qHTS Assay for Inhibitors of Human alpha-Galactosidase at pH 4.5; purified enzyme, 4-MU-alpha-Gal fluorescence, pH 4.5; activity change, negative = inhibition, % at 105 µM; 230,000 tested, under 10 active; inconclusive = small, poorly fitted or top-dose-only inhibition, or a rising curve; inactive = flat fitted curve, though single readings scatter; no compound was filed as active;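 further: 0% = full activity with enzyme and -100% = basal without enzyme; dose as in the result columns while the protocol names 77 µM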
Target sequence (P06280 whole entry, looked up): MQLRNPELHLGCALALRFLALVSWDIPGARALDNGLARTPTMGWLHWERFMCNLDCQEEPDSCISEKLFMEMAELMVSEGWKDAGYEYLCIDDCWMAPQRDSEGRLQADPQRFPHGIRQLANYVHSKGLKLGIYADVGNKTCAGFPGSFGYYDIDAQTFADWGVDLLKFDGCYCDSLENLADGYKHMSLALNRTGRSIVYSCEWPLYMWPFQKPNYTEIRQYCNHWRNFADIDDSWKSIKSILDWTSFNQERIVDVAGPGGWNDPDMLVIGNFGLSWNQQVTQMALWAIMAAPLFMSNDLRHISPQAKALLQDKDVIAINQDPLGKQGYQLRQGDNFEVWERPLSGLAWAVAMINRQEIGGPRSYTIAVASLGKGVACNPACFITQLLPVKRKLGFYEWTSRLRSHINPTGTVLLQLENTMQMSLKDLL
The depositor's hits bear a star; ? = inconclusive; / = not tested or not shown; [ ] = another dose, or the depositor's remark. Some of the compounds tested; the hit share may differ from the screen's.

| # | structure | Rango dissoc inh | miR-21 FLuc |
| --- | --- | --- | --- |
| 1 | N#Cc1ccsc1NC(=O)CN1CCN(S(=O)(=O)c2cc(Cl)ccc2Cl)CC1 | -7.8% | -3.2% |
| 2 | Cc1ccc(C2=NS(=O)(=O)N(C)C(C(=O)NC(C)c3ccccc3)=C2)cc1 (stereo not drawn) | -8.5% | -0.6% |
| 3 | CN(CC(=O)Nc1ccc(F)cc1)C(=O)CSc1ncccn1 | -6.1% | / |
| 4 | NC(=O)C(C1=CCCCC1)c1ccccc1 (stereo not drawn) | -4.9% | / |
| 5 | CCCCc1ccc(-c2ccc(C)cc2O)nc1 | -15.9% | -56.5% |
| 6 | Cc1ccc(NC(=O)N2CCC(C(N)=O)CC2)cc1 | -0.1% | -8.1% |
| 7 | O=C(Nc1ccccc1Oc1ccccc1)C1CCCC1 | 11.3% | -7.8% |
| 8 | CC1CCN(CCCNC(=O)c2nn(C)c3c2CS(=O)(=O)c2ccccc2-3)CC1 | 12.8% | 0.2% |
| 9 | Cc1cc(N2CCCCC2)nc(NCc2ccccc2)n1 | 6.5% | ? |
| 10 | O=C(N/N=C/c1cccnc1)NC12CC3CC(CC(C3)C1)C2 | -22.7% | -4.6% |

| # | Rango complex inh | GLA inh pH 4.5 |
| --- | --- | --- |
| 1 | -5.2% | 0.9 |
| 2 | 4.6% | / |
| 3 | 4.6% | / |
| 4 | 4.9% | / |
| 5 | -2.7% | 1.9 |
| 6 | -2.0% | -0.2 |
| 7 | 0.1% | 0.1 |
| 8 | -0.1% | / |
| 9 | 1.4% | -28.4 |
| 10 | -3.0% | 3.6 |

(further entries)
| # | structure | Rango dissoc inh | miR-21 FLuc |
| --- | --- | --- | --- |
| 11 | O=C1C=C(N2CCOCC2)CCC1 | ? | / |
| 12 | CCN(C(=O)CN1C(=O)S/C(=C\c2cccc(Cl)c2)C1=O)C1CCS(=O)(=O)C1 (stereo not drawn) | 0.2% | 7.1% |
| 13 | COc1ccc(OC)c(NC(=O)CNC(=O)Cn2c(C)cc3ccccc3c2=O)c1 | 0.4% | -2.1% |
| 14 | CC1(C)NC(=O)N(CCCOc2ccc3c(c2)CCC3)C1=O | 18.3% | -23.8% |
| 15 | O=C(/C=C/Nc1ccc(S(=O)(=O)Nc2cnc3ccccc3n2)cc1)c1ccccc1 | 8.2µM* | -20.7% |
| 16 | S=c1[nH]nc(-c2cc3c(s2)-c2ccccc2CC3)o1 | ? | -44.4% |
| 17 | CCOC(=O)C1=C(C)NC(=O)C(C(N)=O)C1c1ccccc1 (stereo not drawn) | 0.0% | -4.8% |
| 18 | CCCCn1c(N)c(N(CC)C(=O)c2cccc(C)c2)c(=O)[nH]c1=O | 5.3% | 2.4% |
| 19 | CN1\C(=C/C=C/C=C/C=[N+](C)C)C(C)(C)c2ccccc21 | ? | 24.4% |
| 20 | COc1ccc2nc(Nc3nc(C)c(CCC(C)C)c(=O)[nH]3)nc(C)c2c1 | -13.7% | -7.5% |

| # | Rango complex inh | GLA inh pH 4.5 |
| --- | --- | --- |
| 11 | ? | / |
| 12 | 4.2% | / |
| 13 | -0.3% | 7.1 |
| 14 | 1.0% | -6.9 |
| 15 | ? | -7.2 |
| 16 | ? | 25.7 |
| 17 | 0.1% | 1.1 |
| 18 | -2.2% | / |
| 19 | ? | -3.0 |
| 20 | 0.7% | -5.4 |

Excerpt, entries 17–19
| # | structure | Rango dissoc inh | miR-21 FLuc |
| --- | --- | --- | --- |
| 17 | CCOC(=O)C1=C(C)NC(=O)C(C(N)=O)C1c1ccccc1 (stereo not drawn) | 0.0% | -4.8% |
| 18 | CCCCn1c(N)c(N(CC)C(=O)c2cccc(C)c2)c(=O)[nH]c1=O | 5.3% | 2.4% |
| 19 | CN1\C(=C/C=C/C=C/C=[N+](C)C)C(C)(C)c2ccccc21 | ? | 24.4% |

| # | Rango complex inh | GLA inh pH 4.5 |
| --- | --- | --- |
| 17 | 0.1% | 1.1 |
| 18 | -2.2% | / |
| 19 | ? | -3.0 |

New compounds follow.
| # | structure | Rango dissoc inh | miR-21 FLuc |
| --- | --- | --- | --- |
| 21 | CC(C)CN(C(=O)CN1CCC(C)CC1)c1c(N)n(CC(C)C)c(=O)[nH]c1=O | -6.8% | -11.5% |
| 22 | COc1ccc(OC)c(NC(=O)CCN2CCCCCC2)c1 | -8.3% | -3.5% |
| 23 | O=S(=O)(c1ccc2nc(-c3ccccc3)[nH]c2c1)N1CCN(c2ccc(Cl)cc2)CC1 | -12.7% | 4.3% |
| 24 | Cc1ccc(-c2nc3ncccn3c2NC2CCCCC2)o1 | ? | 0.6% |
| 25 | CC1CCN(C(=O)CSc2nc3cccnc3n2C)CC1 | -19.4% | -2.1% |
| 26 | O=C(NCc1ccc2c(c1)OCO2)C1CCCN1C(=O)Nc1cccc(Cl)c1 (stereo not drawn) | 2.6% | -7.0% |
| 27 | CCOCCCNC(=O)Cn1nc(Cc2ccncc2)c2ccccc2c1=O | -15.8% | -1.6% |
| 28 | CCc1nc(NCc2ccccn2)c2oc3ccccc3c2n1 | 7.5% | 21.3% |
| 29 | CCOCCCNC(=O)NC(=O)CN1CCN(S(=O)(=O)c2ccc3c(c2)OCCO3)CC1 | -10.8% | -2.5% |
| 30 | C=C1C(=O)O[C@H]2C1CC[C@@](C)(O)C13C=CC(C)(C21)C1(C3)C(=O)O[C@@H]2C3C(C)=CCC3[C@](C)(O)C[C@H](OC(C)=O)C21 (stereo partly drawn) | -15.3% | 11.2% |

| # | Rango complex inh | GLA inh pH 4.5 |
| --- | --- | --- |
| 21 | -2.0% | 1.7[21.1 µM] |
| 22 | -2.0% | -21.0 |
| 23 | -2.5% | 1.0 |
| 24 | ? | -1.8 |
| 25 | -3.7% | 3.9 |
| 26 | 0.8% | -6.5 |
| 27 | -12.6% | / |
| 28 | 0.5% | / |
| 29 | -1.2% | 0.5 |
| 30 | -0.9% | -1.7 |

Some of the entries so far, with one line to a screen:
10. O=C(N/N=C/c1cccnc1)NC12CC3CC(CC(C3)C1)C2
11. O=C1C=C(N2CCOCC2)CCC1
12. CCN(C(=O)CN1C(=O)S/C(=C\c2cccc(Cl)c2)C1=O)C1CCS(=O)(=O)C1 (stereo not drawn)
13. COc1ccc(OC)c(NC(=O)CNC(=O)Cn2c(C)cc3ccccc3c2=O)c1
14. CC1(C)NC(=O)N(CCCOc2ccc3c(c2)CCC3)C1=O
15. O=C(/C=C/Nc1ccc(S(=O)(=O)Nc2cnc3ccccc3n2)cc1)c1ccccc1
16. S=c1[nH]nc(-c2cc3c(s2)-c2ccccc2CC3)o1
screen / no.,10,11,12,13,14,15,16
Rango dissoc inh,-22.7%,?,0.2%,0.4%,18.3%,8.2µM*,?
miR-21 FLuc,-4.6%,/,7.1%,-2.1%,-23.8%,-20.7%,-44.4%
Rango complex inh,-3.0%,?,4.2%,-0.3%,1.0%,?,?
GLA inh pH 4.5,3.6,/,/,7.1,-6.9,-7.2,25.7

17. CCOC(=O)C1=C(C)NC(=O)C(C(N)=O)C1c1ccccc1 (stereo not drawn)
18. CCCCn1c(N)c(N(CC)C(=O)c2cccc(C)c2)c(=O)[nH]c1=O
19. CN1\C(=C/C=C/C=C/C=[N+](C)C)C(C)(C)c2ccccc21
20. COc1ccc2nc(Nc3nc(C)c(CCC(C)C)c(=O)[nH]3)nc(C)c2c1
21. CC(C)CN(C(=O)CN1CCC(C)CC1)c1c(N)n(CC(C)C)c(=O)[nH]c1=O
22. COc1ccc(OC)c(NC(=O)CCN2CCCCCC2)c1
23. O=S(=O)(c1ccc2nc(-c3ccccc3)[nH]c2c1)N1CCN(c2ccc(Cl)cc2)CC1
screen / no.,17,18,19,20,21,22,23
Rango dissoc inh,0.0%,5.3%,?,-13.7%,-6.8%,-8.3%,-12.7%
miR-21 FLuc,-4.8%,2.4%,24.4%,-7.5%,-11.5%,-3.5%,4.3%
Rango complex inh,0.1%,-2.2%,?,0.7%,-2.0%,-2.0%,-2.5%
GLA inh pH 4.5,1.1,/,-3.0,-5.4,1.7[21.1 µM],-21.0,1.0

24. Cc1ccc(-c2nc3ncccn3c2NC2CCCCC2)o1
25. CC1CCN(C(=O)CSc2nc3cccnc3n2C)CC1
screen / no.,24,25
Rango dissoc inh,?,-19.4%
miR-21 FLuc,0.6%,-2.1%
Rango complex inh,?,-3.7%
GLA inh pH 4.5,-1.8,3.9

More results
| # | structure | Rango dissoc inh | miR-21 FLuc |
| --- | --- | --- | --- |
| 31 | C=CCc1ccccc1OCCNCCCOC | 21.1% | -9.9% |
| 32 | Cc1nn2c3ccccc3n(CCN3CCCCC3)c2nc1=O | 2.1% | -9.4% |
| 33 | CC(C)[C@H](NC(=O)C1CCN(S(=O)(=O)c2ccc(F)cc2)CC1)C(=O)NCc1ccncc1 | -7.5% | -4.1% |
| 34 | O=c1cc(-c2ccccc2)nc(/C=C/c2ccccc2)[nH]1 | 9.8% | -11.8% |
| 35 | Cc1ccc(S(=O)(=O)NCC(=O)OCc2nnc(-c3ccccc3)o2)cc1 | -4.3% | -4.0% |
| 36 | CN1CCC(OC(=O)c2ccccc2)CC1 | -3.2% | -3.0% |
| 37 | CCOC(=O)C1CCCN(c2ncnc3c2cnn3-c2ccc(OC)cc2)C1 (stereo not drawn) | -5.6% | -43.7% |
| 38 | N#Cc1nc(COc2ccccc2)oc1NCCN1CCOCC1 | -0.9% | -12.9% |
| 39 | COc1ccc(/C=C/c2ccc(=O)n(Cc3ccccc3)n2)cc1 | -8.1% | -4.6% |
| 40 | O=C(CN1CCOCC1)N1CCN(c2ccc([N+](=O)[O-])cc2)CC1 | -0.7% | 0.7% |

| # | Rango complex inh | GLA inh pH 4.5 |
| --- | --- | --- |
| 31 | -0.7% | 3.9 |
| 32 | 2.1% | -1.9 |
| 33 | -2.4% | / |
| 34 | -5.6% | 4.5 |
| 35 | -1.0% | / |
| 36 | 0.8% | / |
| 37 | 2.4% | -9.9 |
| 38 | -1.0% | -9.5 |
| 39 | -0.8% | -6.9 |
| 40 | -0.7% | 3.8 |

Next section.
| # | structure | Rango dissoc inh | miR-21 FLuc |
| --- | --- | --- | --- |
| 41 | CCOc1ccccc1Nc1nnc(SCC(=O)NC2CC2)s1 | -3.6% | / |
| 42 | O=C(Cn1c(-c2ccccc2)noc1=O)Nc1ccc(S(=O)(=O)N2CCOCC2)cc1 | -4.4% | 0.9% |
| 43 | Cc1ccc(-c2nc(CCNC(=O)c3ccco3)cs2)cc1 | 0.7% | / |
| 44 | CCCNC(=O)C(=O)NCC1CCCN1CC (stereo not drawn) | 18.4% | 4.1% |
| 45 | COc1cc(/C=C/C(=O)Nc2ccc3nc4n(c(=O)c3c2)CCCC4)cc(OC)c1OC | -14.1% | 9.8% |
| 46 | CCOc1ccc2nc(SCc3ccccc3C#N)sc2c1 | 1.7% | -58.6% |
| 47 | CCN1C(=O)c2cccc3c(NS(=O)(=O)c4ccc(NC(C)=O)cc4)ccc1c23 | ? | 8.2% |
| 48 | COc1ccc(C(=O)N/N=C(/C)c2cccc(NC(=O)C(F)(F)F)c2)cc1 | -4.5% | -58.1% |
| 49 | COc1ccc(C(C)=O)cc1CSCC(=O)O | 6.7% | -0.2% |

| # | Rango complex inh | GLA inh pH 4.5 |
| --- | --- | --- |
| 41 | 4.3% | / |
| 42 | -2.6% | 6.7 |
| 43 | 0.7% | / |
| 44 | -1.0% | 6.1 |
| 45 | 0.8% | -2.9 |
| 46 | 1.5% | -2.0 |
| 47 | ? | -2.6 |
| 48 | -1.3% | -2.8 |
| 49 | -0.3% | 0.7 |
